HTT ATP protect: Huntington cell model cytoprotection by ATP luminescence | PC12 HTT-Q103 induced, cytoprotection, ATP luminescence, 40 h | Potency, µM (highest dose often 56.4 µM), inactives show cytoprotection (ATP increase), usual class: activators | 230,000 tested, 0.14% active | AID 1471;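 further: % of control where 0% means no effect; nearly all actives have a fitted effect of over 45% in size; toxic huntingtin expression switched on by the ecdysone agonist tebufenozide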
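Readout: ATPlite luminescence (ATP level). Model: stable PC12, inducible Htt exon1 Q103-GFP. Inducer: tebufenozide, 100 nM final. Compounds: dose series. No G418 in medium.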
Tau fibril FP: tau fibrillization inhibition (FP). P10636. K18 P301L tau heparin fibrillization, Alexa594 FP, 6 h. Potency, µM (highest dose often 57.7 µM), for the others: at the highest dose activity, negative = inhibition, usual class: inhibitors. 280,000 tested, 0.39% active. AID 1468; further: on the % scale 0 is the no-effect control and ±100 the full control effect; nearly all actives have a fitted effect of over 55% in size
Target sequence (P10636 561-689 P618L limits assumed): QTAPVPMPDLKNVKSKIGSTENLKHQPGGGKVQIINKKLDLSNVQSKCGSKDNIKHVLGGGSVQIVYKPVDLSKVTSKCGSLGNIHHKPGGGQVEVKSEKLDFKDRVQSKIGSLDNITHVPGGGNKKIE
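Human K18 P301L fragment (15 uM unlabeled plus 0.24 uM Alexa 594-labeled) in 100 mM sodium acetate pH 7 with compound, aggregation induced by 20 uM heparin for 6 hr at 37 C. ThT (30 uM) added for 1 hr, then Alexa 594 FP read.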
SMN2 splice enh: enhancers of SMN2 splice variant expression | AID 1458 | Potency, µM (titrated, usually from 46.1 µM), for inactives: at the top dose activity change, positive = activation, most hits filed as activators | 210,000 tested, 2.8% active | HEK293 SMN2-luciferase splicing reporter, luminescence, 30-36 h; further: % of control where 0% means no effect; nearly all actives have a fitted effect of over 55% in size
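qHTS luciferase splicing reporter: luminescence rises when SMN2 exon 7 is included in transfected HEK293 cells. Compound exposure lasted 30-36 h at 37C, with 4.5 mM final sodium butyrate as control, followed by a ONE-Glo read.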
Tau fluor cs: counter-screen for tau fibril formation inhibitors | tau K18 P301L Alexa594 fluorescence, heparin fibrillization | Potency, µM (series often up to 57.7 µM), for the others: at the top dose activity change, negative = decrease | 280,000 tested, 0.93% active | AID 1463; further: on the % scale 0 is the no-effect control and ±100 the full control effect; nearly all actives have a fitted effect of over 55% in size
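Human K18 P301L tau (15 uM unlabeled plus 0.24 uM Alexa 594-labeled, final) in 100 mM sodium acetate pH 7 was mixed with compound and 20 uM heparin and incubated 6 hr at 37 C.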
Tau fibril ThT: inhibitors of human tau fibril formation, thioflavin T binding; P10636; recombinant tau K18 P301L (four-repeat tau fragment), heparin-induced fibrillization, ThT fluorescence; Potency, µM (titrated, usually from 57.4 µM), without a hit: at the top dose activity, negative = inhibition, usual class: inhibitors; 270,000 tested, 2.1% active; AID 1460; further: on the % scale 0 is the no-effect control and ±100 the full control effect; nearly all actives have a fitted effect of over 55% in size
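In this qHTS, human K18 P301L tau is incubated with compound and heparin for 6 hr at 37 C, and Thioflavin T fluorescence then reports fibril load.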
ALDH1A1 inh: blocks purified human ALDH1A1 activity; Purified ALDH1A1, NADH fluorescence, propionaldehyde substrate; Potency, µM (highest dose often 75.3 µM), for inactives: at the highest dose activity, negative = inhibition, hits mostly inhibitors; 220,000 tested, 7.3% active; active means well fitted inhibition curve with a large enough effect, not every such curve was filed as active; inconclusive means small, poorly fitted or top-dose-only effect, or another doubt; inactive means no such curve, though single readings can be large or run the other way;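 further: plate controls were no enzyme wells and a reference inhibitor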
Target sequence (P00352 whole entry, looked up): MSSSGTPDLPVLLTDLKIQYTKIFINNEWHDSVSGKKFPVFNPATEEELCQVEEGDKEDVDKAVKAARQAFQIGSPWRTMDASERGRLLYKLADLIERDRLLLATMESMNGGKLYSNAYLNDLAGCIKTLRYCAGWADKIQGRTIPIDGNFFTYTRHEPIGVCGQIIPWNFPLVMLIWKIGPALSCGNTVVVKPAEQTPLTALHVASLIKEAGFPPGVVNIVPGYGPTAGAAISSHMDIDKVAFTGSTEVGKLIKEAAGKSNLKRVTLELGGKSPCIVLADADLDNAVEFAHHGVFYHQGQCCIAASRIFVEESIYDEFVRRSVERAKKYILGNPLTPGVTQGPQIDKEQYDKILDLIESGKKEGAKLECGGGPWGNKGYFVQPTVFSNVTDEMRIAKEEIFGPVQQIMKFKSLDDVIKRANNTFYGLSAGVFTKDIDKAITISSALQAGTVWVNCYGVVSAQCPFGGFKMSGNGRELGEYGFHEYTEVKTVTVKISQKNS
HTT aggregate: mutant huntingtin aggregation inhibition; PC12 HttQ103-GFP aggregates, Acumen cytometry, 40 h; Potency, µM (titrated, usually from 46.1 µM), without a hit: at the highest dose activity change, negative = inhibition, hits mostly inhibitors; 220,000 tested, 1.1% active; AID 1688; further: on the % scale 0 is the no-effect control and ±100 the full control effect; nearly all actives have a fitted effect of over 60% in size
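Steps: seed 1500 PC12 HTTQ103-GFP cells/well; add tebufenozide, 100 nM final; add compound titration; add ATPLite reagent; quantify GFP aggregates by laser scanning cytometry.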
* hit, by the source's call; ? = inconclusive; / = no result given; & = joins results of further samples; [ ] = another dose, or the depositor's remark. Unless noted, the call rests on the fitted dose curve; in most records, active means well fitted curve in the direction sought with a large enough effect; inconclusive means small, poorly fitted or top-dose-only effect, or another doubt; inactive means no such curve, though single readings can be large; an effect the other way counts as inactive or inconclusive. Potency means the concentration at half of the fitted maximal effect.

SMILES	SMN2 splice enh	Tau fibril ThT	Tau fluor cs	Tau fibril FP	ALDH1A1 inh	HTT ATP protect	HTT aggregate
CC(=O)c1cc(C#N)c(N2CCCC2)nc1C	-6.4%	2.2%	2.9%	3.1%	?	/	0.9%
CCNC(=O)COC(=O)c1cc(C)nc2ccccc12	3.4%	5.0%	6.8%	6.5%	3.2%	25.9%[10 µM]	13.7%
COc1ccc(C(C#N)Nc2ccccc2OC)cc1 (configuration not stated)	-9.0%	-4.6%	-7.8%	-9.6%	?	-20.5%	-0.1%
CCCCOCCCNC(=O)c1ccc([N+](=O)[O-])c(C)c1	-11.0%	-4.1%	-7.4%	2.6%	5.0%	-3.3%[10 µM]	-9.0%
O=C(CCc1ccc(S(=O)(=O)NC2CCCCC2)cc1)N(Cc1ccccc1)Cc1ccccc1	-19.0%	-19.3%	-17.3%	-2.5%	?	-54.9%[inhibitor]	?
COc1ccc(CNC(=O)C2CCCN2)cc1OC (configuration not stated)	-0.3%	-6.3%	-3.1%	-0.6%	-14.5%	-5.1%[10 µM]	-12.7%[9.22 µM]
S=C(NCc1ccco1)Nc1ccc(Oc2ccccc2)cc1	?	?	?	0.7%	?	-7.5%[10 µM]	?
COc1cccc(CC2(CO)CCCN(Cc3nc(-c4cccs4)oc3C)C2)c1 (configuration not stated)	/	-6.0%	-9.1%	7.0%	?	23.6%[10 µM]	4.6%[9.22 µM]
O=C(CSc1nc(O)cc(=O)[nH]1)N1c2ccccc2CCc2ccccc21	/	/	-26.3%	-12.2%	/	9.0%[10 µM]	9.3%[9.22 µM]
COC(=O)CCC(=O)OC1(C)C(=O)C=C2C=C(C3CC3)N(CCCOC(C)C)C=C2C1=O (configuration not stated)	-0.9%[9.22 µM]	-11.1%[11.5 µM]	-7.1%[11.6 µM]	-1.5%[11.6 µM]	5.8%[13.5 µM]	-12.9%&-0.2%[10 µM]	-4.8%[9.22 µM]
CCc1ccc(C(CNC(=O)c2ccc3c(=O)n(-c4ccccc4F)c(=S)[nH]c3c2)N(C)C)cc1 (configuration not stated)	-25.9%	-16.4%	?	-8.5%	?	-14.4%[10 µM]	-25.0%
C/C(=N\NC(=S)Nc1ccccc1)C1Cc2ccccc2C(=O)O1 (configuration not stated)	/	/	-13.6%	-0.6%	/	-13.8%[10 µM]	5.0%[9.22 µM]
COc1ccccc1C(CC(=O)Nc1ccc(C)c(C)c1)c1ccc(OC(C)C)cc1 (configuration not stated)	/	-8.3%	-1.8%	-3.3%	-6.8%	2.0%[10 µM]	?
Cc1nc2sc3c(c2c2nnc(SCC(=O)NCc4ccco4)n12)CCCC3	-12.1%	-26.7%	-5.7%	-4.4%	14.1µM*	-11.0%[10 µM]	-2.9%
COc1ccc(C(=O)CSc2nnc3ccc(-c4ccccn4)nn23)cc1	-13.0%	-21.6%	-13.1%	-0.5%	?	-28.2%	-1.7%
CCOc1ccc(/C=N/NC(=O)CN2CCSCC2)cc1	-7.9%	-15.8%	-0.8%	3.2%	?	-5.0%[10 µM]	12.2%
N#Cc1ccc(C2=NC(C(F)(F)F)(C(F)(F)F)c3c(n(Cc4ccco4)c(=O)[nH]c3=O)N2)cc1	-6.8%	-7.8%	-12.7%	2.0%	14.7%	-52.0%[inhibitor]	?
Cc1cc(C)c(OCCN(C)C)c(Cl)c1	-8.3%	-0.1%	1.2%	8.4%	?	12.9%	5.4%
Nn1c(SCC(=O)Nc2ccc(S(N)(=O)=O)cc2)nnc1C(F)(F)F	/	0.8%	2.4%	2.9%	/	-6.1%[10 µM]	8.6%[9.22 µM]
CC(C)NC(=O)CC(=O)NN=C1CCCCC1	/	1.0%	7.8%	10.8%	-6.6%	-26.5%[10 µM]	2.4%[9.22 µM]
CCOC(=O)COc1nc(-c2ccco2)cc(-c2ccco2)c1C#N	/	?	?	7.1%	/	16.5%[10 µM]	-7.0%[9.22 µM]
O=[N+]([O-])c1cc(C(F)(F)F)ccc1NCCOc1ccccc1	?	?	?	-3.1%	2.3%	-1.6%[10 µM]	-5.4%
O=C(NCc1ccc2c(c1)OCO2)Nc1ccc2nsnc2c1	/	-17.2%	-26.0%	-9.5%	-0.1%	5.4%[10 µM]	-7.2%[9.22 µM]
CN(C)S(=O)(=O)c1ccc(C(=O)Nc2ccc(CN3CCCC3)cc2)cc1	0.6%	-1.2%	-10.3%	-14.3%	?	-9.1%	-6.9%
O=C(CN1CCc2ccccc2C1)Nc1cccc(S(=O)(=O)N2CCCC2)c1	-14.9%	-12.9%	-12.1%	8.1%	?	-35.1%[inhibitor]	-8.6%
O=C(Nc1ccc(C(=O)N2CCOCC2)cc1)Nc1cccc2ccccc12	-43.1%	4.0%	-21.7%	-5.1%	-3.7%	-66.9%[inhibitor]	-2.0%
CCCCn1c(=O)c(CCC(=O)OCC(=O)Nc2cc(Cl)ccc2OC)nc2ccccc21	-0.2%	0.1%	-4.3%	-0.2%	5.5%	17.2%[10 µM]	0.0%
COc1ccc(C2c3c(-c4ccccc4O)n[nH]c3C(=O)N2CCc2ccc(OC)c(OC)c2)cc1 (configuration not stated)	-15.4%	-5.0%	?	6.1%	?	9.0%[0.074 µM]	?
NNc1nc(Nc2ccccc2)nc(Nc2ccccc2)n1	-3.9%	5.7%	?	?	-2.6%	-4.9%[10 µM]	-0.6%
CCCN(CC1CC1)c1nc(N)c(C#N)c(CC#N)c1C#N	-3.9%	-4.9%	-15.8%	-13.6%	-3.7%	0.1%	-12.2%
CS(=O)(=O)N1CC(C(=O)NC2CC2)Oc2ccc(Cl)cc21 (configuration not stated)	9.8%	0.7%	-3.9%	-8.1%	5.9%	-4.1%	20.2%
Cc1sc2nc(CN3CCN(c4ccc(O)cc4)CC3)[nH]c(=O)c2c1C	/	/	?	3.6%	/	11.2%[10 µM]	4.4%[9.22 µM]
CCOc1ccccc1OCCOCCN1CCN(Cc2ccccc2)CC1	-9.9%	-1.3%	4.5%	4.4%	?	20.0%[10 µM]	2.1%[9.22 µM]
CC1CCCN(CCCOc2ccc(Cl)cc2Br)C1 (configuration not stated)	-33.2%[inhibitor]	9.0%	3.6%	0.1%	?	7.2%[10 µM]	-3.0%
O=C1CC(c2cccc(Br)c2)C2=C(CCCC2=O)N1 (configuration not stated)	-3.5%	1.1%	0.8%	-3.5%	?	-8.0%[0.074 µM]	-6.1%
COc1ccc(Br)cc1CN1CCCCCCC1	1.7%	-5.7%	-3.1%	-4.6%	-6.0%	31.4%[10 µM]	-14.2%
O=C(COC(=O)c1ccc2ncsc2c1)NC(=O)c1ccccc1	12.3%	-7.2%	-6.4%	-5.0%	-0.8%	-25.0%	11.8%
C1=C(c2ccccc2)Nc2ccccc2N=C1c1ccccc1	-42.7%[inhibitor]	-11.7%	-26.3%	-7.9%	-1.7%	/	12.8%
CCN(c1ccccc1)S(=O)(=O)c1ccc(OC)c(NC(=O)CN(C)C)c1	-13.4%	-2.5%	-7.5%	-8.0%	-10.0%	0.1%	-4.3%[9.22 µM]
CCCCN(CC)CCCNC(=O)c1cc2c(=O)n(C)c3ccccc3c2n1C	?	0.8%	6.6%	8.3%	?	-22.0%[10 µM]	-2.2%

Sorted by value in Tau fibril ThT (low to high): some entries from above
molecule | SMN2 splice enh | Tau fibril ThT | Tau fibril FP | ALDH1A1 inh
O=C(CCc1ccc(S(=O)(=O)NC2CCCCC2)cc1)N(Cc1ccccc1)Cc1ccccc1 | -19.0% | -19.3% | -2.5% | ?
C1=C(c2ccccc2)Nc2ccccc2N=C1c1ccccc1 | -42.7%[inhibitor] | -11.7% | -7.9% | -1.7%
COc1ccc(C2c3c(-c4ccccc4O)n[nH]c3C(=O)N2CCc2ccc(OC)c(OC)c2)cc1 (configuration not stated) | -15.4% | -5.0% | 6.1% | ?
CC(=O)c1cc(C#N)c(N2CCCC2)nc1C | -6.4% | 2.2% | 3.1% | ?

Back to the main list; the two compounds before the break are reprinted first.
SMILES	SMN2 splice enh	Tau fibril ThT	Tau fluor cs	Tau fibril FP	ALDH1A1 inh	HTT ATP protect	HTT aggregate
CCN(c1ccccc1)S(=O)(=O)c1ccc(OC)c(NC(=O)CN(C)C)c1	-13.4%	-2.5%	-7.5%	-8.0%	-10.0%	0.1%	-4.3%[9.22 µM]
CCCCN(CC)CCCNC(=O)c1cc2c(=O)n(C)c3ccccc3c2n1C	?	0.8%	6.6%	8.3%	?	-22.0%[10 µM]	-2.2%
COc1cc(OC)c(OC)cc1CN1CCC(O)CC1	/	5.9%	9.9%	-1.4%	/	11.6%[10 µM]	7.4%[9.22 µM]
CCN1CCN(CC2CC3C=CC2C3)CC1 (configuration not stated)	-3.2%	1.1%	1.5%	-1.6%	?	-11.9%[10 µM]	-6.6%
OCC(O)CN(c1ccccc1)c1ccccc1 (configuration not stated)	-5.7%	-3.9%	-10.1%	4.0%	?	-76.2%[inhibitor]	-30.5%
CC(NCc1cccs1)C(=O)NC1CCCCC1 (configuration not stated)	-3.9%	4.1%	7.1%	0.8%	-3.3%	-19.1%	-3.7%
Cc1c(O)c(=O)ccn1Cc1ccccc1	-101.5%[inhibitor]	-4.6%[11.5 µM]	-3.2%[11.6 µM]	-5.2%[11.6 µM]	4.5%[13.5 µM]	-37.8%[inhibitor][10 µM]	?
COc1cc(C)c(S(=O)(=O)NCc2ccc3c(c2)OCO3)cc1C	0.2%	-17.6%	-17.4%	-7.1%	?	-38.2%	-1.0%
COc1cccc(OC)c1C(=O)NC(=S)Nc1ccc2c(c1)Cc1ccccc1-2	10.1%	?	-15.0%	-0.5%	10µM*	0.5%	-1.0%
CCCOc1ncnc2c1[nH]c1ccc(C)cc12	/	-15.0%	-9.5%	-3.9%	?	-9.7%[10 µM]	1.9%[9.22 µM]
CCCCNC(=S)N1CCN(CC)CC1	1.0%	7.7%	7.5%	-4.3%	?	/	/

Some of the entries above, set out differently:
Every second line gives: SMN2 splice enh | Tau fibril ThT | Tau fluor cs | Tau fibril FP | ALDH1A1 inh | HTT ATP protect | HTT aggregate
> Cc1c(O)c(=O)ccn1Cc1ccccc1
    -101.5%[inhibitor] | -4.6%[11.5 µM] | -3.2%[11.6 µM] | -5.2%[11.6 µM] | 4.5%[13.5 µM] | -37.8%[inhibitor][10 µM] | ?
> CCCOc1ncnc2c1[nH]c1ccc(C)cc12
    / | -15.0% | -9.5% | -3.9% | ? | -9.7%[10 µM] | 1.9%[9.22 µM]
> CCCCNC(=S)N1CCN(CC)CC1
    1.0% | 7.7% | 7.5% | -4.3% | ? | / | /
> OCC(O)CN(c1ccccc1)c1ccccc1 (configuration not stated)
    -5.7% | -3.9% | -10.1% | 4.0% | ? | -76.2%[inhibitor] | -30.5%

Only part of the results is shown; count on the stated rates, not on these rows.
